MgrA DNA FP: alters Staphylococcus aureus MgrA binding to DNA | fluorescence polarization | inhibition, %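 (about 10 µg/mL by stock and volumes)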 | 0.13% of 84,000 active | AID 602314;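 active = above 50% in either of two replicates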;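 note: 0% = protein plus DNA without compound and 100% = DNA alone without protein; higher means less MgrA bound to DNA so lower polarization; one replicate is shown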
S aureus helic: S. aureus DNA helicase inhibition; purified S. aureus helicase, fluorescence unwinding assay; about half of the hits fall short of the stated cut; inhibition, %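 (tested at about 80 µM)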; 0.05% of 120,000 active; AID 485395;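 active = both duplicates at 50% or more, or one of them with a favoured structure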;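 note: 0% = mean of negative control wells and 100% = mean of positive control wells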
Starred values were filed as active, the others as inactive; / = not tested or not shown; & = joins results of further samples.

SMILES	MgrA DNA FP	S aureus helic
O=C1c2ccccc2C(=O)N1CC#Cc1ccccc1	3.5	6
Cc1noc(C(=O)N(C)c2ccccc2)c1Cl	2.7	5
CCn1cnc2c(=O)oc3ccccc3c21	/	-28
CN(C)CC1COc2ccccc2C1=O (centres undefined)	-11	/
CCC(C)n1c(SCC(=O)NC2CCS(=O)(=O)C2)nc2ccccc2c1=O (centres undefined)	/	6
CC1CN(S(=O)(=O)c2cccc(C(=O)NCCO)c2)CC(C)O1 (centres undefined)	/	0
O=C(Nc1cccnc1)c1cccc(C(F)(F)F)c1	2.0	4
Cc1ccc(NC(=S)N2CCCc3cccc(C)c32)c(C)c1	0.3	/
CC(C)CN(CC(C)C)C(=O)C1CCCCC1C(=O)O (centres undefined)	2.4	-22
CCOC(=O)C(C)n1nc(C)c2c(C)n(-c3ccccc3)nc2c1=O (centres undefined)	/	-9
O=C(CSc1nnc2n1CCCCC2)N(c1ccccc1)C1CCCCC1	/	0
COC(=O)c1ccc(/N=C/N(C)C)o1	3.4	/
CCCCC1CCC(C(=O)ON2C(=O)c3cccc4cccc(c34)C2=O)CC1 (centres undefined)	-0.5	3
N#Cc1ccccc1OC1CCOC1=O (centres undefined)	/	11
COc1ccc(-c2cc(C(=O)NCC(=O)O)c(C)o2)cc1OC	-1.7	21
NCCC(=O)NCCc1cnc[nH]1	0.4	/
COc1ccc(/C=C2N=C(/C=C/c3ccc(C)cc3)OC\2=O)cc1OC(C)=O	4.8	6
c1ccc(Nc2c(-c3ccsc3)nc3cnccn23)cc1	/	4
COc1ccc2c(Cl)c(C(=O)NN=C3CCN(C)CC3)sc2c1	/	-3
CC(C)C(=O)Nc1cscc1S(=O)(=O)c1ccc(Cl)cc1	-1.1	/
Cc1nonc1NCc1ccc(N(C)C)cc1	0.7	3
O=C(CC(NS(=O)(=O)c1ccc(Br)cc1)c1ccco1)NC1CC1 (centres undefined)	1.1	10
COc1ccc(-n2nc(C#N)c(N)c(C#N)c2=N)cc1	-0.5	15
CCOCCCn1c(=S)[nH]c2cc(C(=O)N3CCN(c4ccccc4)CC3)ccc2c1=O	/	-14
CN(C)c1ccc(/C=C/C=N/n2cnnc2)cc1	-7.5	-62
Going on with the list.
SMILES	MgrA DNA FP	S aureus helic
COc1ccccc1NC(=O)c1ccc(S(=O)(=O)N2CCCC2)cc1	/	-7
CCn1cc(S(=O)(=O)Nc2cc(C)on2)cn1	-2.2	3
CN(C)c1nc(-c2cn(CCC#N)c3ccccc23)cs1	/	7
COc1cc(C(=O)Oc2ccc(C#N)cc2)cc(OC)c1OC	/	26
O=S(=O)(Nc1ccccn1)c1ccccc1	5.2	0
N#C/C(=C\C1CC=CCC1)c1nc2ccccc2c(=O)[nH]1 (centres undefined)	0.0	1
CN(C)C(=O)/C=C\c1cn(-c2ccccc2)nc1-c1ccc2c(c1)OCCO2	-0.8	21
CC(C)CC(=O)Nc1nc(-c2ccc(F)cc2)cs1	/	-5
CCC(=O)N1CCc2cc(S(=O)(=O)CCC(=O)N3CC(=O)N(CCc4ccccc4)C(=O)C3)ccc21	/	-28
c1ccc2c(c1)nnn2C12CC3CC(CC(C3)C1)C2	1.8	-5
CNC(=S)N(Cc1cccnc1)Cc1cc2cc(OC)ccc2[nH]c1=O	-1.3	6
Cc1noc2ncnc(SCc3ccc(C(F)(F)F)cc3)c12	-0.9	/
NC(N)=Nc1nc2ccccc2s1	-0.2	-20
COc1ccc(-c2noc(CN3C(=O)c4ccccc4C3=O)n2)cc1	-2.2	-2
O=C(O)CCC(=O)Nc1cc(C(F)(F)F)cc(C(F)(F)F)c1	-2.1	/
CC1CCCCC1N(C)C1CCN(CCCNC(=O)/C=C/c2cccc(C(F)(F)F)c2)CC1 (centres undefined)	-0.9	18
CN(CC(=O)N1CCC(C(N)=O)CC1)S(=O)(=O)c1ccc(Br)cc1	2.7	9
COc1ccc(C=NNC(=O)Cn2cnc3c(=O)n(C)c(=O)n(C)c32)cc1	/	-12
COc1ccc(CC(=O)n2nc(-c3ccc(F)cc3)cc2SC)cc1OC	0.0	/
Cc1ccc(Cn2c(=O)c3ccccc3n3c(SCC(N)=O)nnc23)cc1	/	-2
COC(=O)c1ccc(-c2cnco2)cc1	-1.5	/
CCn1cc2c(n1)-c1c(oc(C(=O)N3CCc4ccccc4C3)c1C)CC2	0.8	-8
COc1ccccc1NC(=O)CC(C)(C)C	1.8	1
C=CCn1c(SCc2ccc(C(=O)OC)cc2)nc2sc(C)c(C)c2c1=O	-2.9	/
Cc1ccc(CN(C)C(=S)Nc2cccc(C(F)(F)F)c2)o1	/	7
(further entries)
SMILES	MgrA DNA FP	S aureus helic
Cn1c(N/C(=C/C(=O)c2cccs2)C(F)(F)F)nc2ccccc21	/	7
CCCC(=O)Nc1ccc(C(=O)NN)cc1	/	3
CCOc1cccc(=O)c2c(C)n(-c3ccc(OC)cc3)c(C)c12	2.2	-3
CCC(c1ccccc1)c1nc(-c2ccccc2)no1 (centres undefined)	0.6	6
CCOC(=O)N1CCC(NC(=O)CCc2nc(-c3ccc(C)cc3)no2)CC1	/	4
COc1ccc(-c2csc(/C(C#N)=C(\O)CSc3nnc(-c4ccccc4F)n3C3CC3)n2)cc1OC	/	6
COc1ccc(C(=O)OCc2c(C)noc2C)cc1S(=O)(=O)NCc1ccc(Cl)cc1	/	4
CC(C)CC(=O)Nc1cc(Cl)ccc1Cl	2.4	6
O=C1CCCC2=C1C(c1ccccc1Cl)C1=C(CCCC1=O)O2	/	-20
CC1(C)CC(=O)c2ccc(OCC(=O)Nc3ccc(Br)cc3)cc2O1	-2.6	/
CC1CCCN(C(=O)COc2ccc(-c3ccccc3)cc2)C1 (centres undefined)	-0.5	-10
Cc1ccc(-n2nc(C)c3onc(C)c3c2=O)cc1	/	-4
CCOc1ccc(Cn2c(=O)[nH]c3c2c(=O)n(C)c(=O)n3C)cc1OCC	/	12
O=C(O)c1ccc(NCc2ccco2)cc1	/	7
O=C(NCc1ccccc1Cl)C1CC1	0.1	-2
N#CC(C#N)=CNNc1ncnc2sccc12	/	-32
O=C(/C=C/c1ccco1)Nc1cccc2cccnc12	1.9	-1
O=C1Nc2ccccc2/C1=C/C(=O)c1ccccc1	/	8
CCOC(=O)c1ccc(N2CCOCC2)c(NS(=O)(=O)c2ccc(F)cc2)c1	-0.5	/
C#CCn1c(=NC(=O)CSCC(=O)N2CCCC2)sc2ccccc21	/	1
Cc1ccccc1Cn1nc(-c2ccco2)ccc1=O	/	11
CC(C)CC(NC(=O)c1ccco1)C(=O)O (centres undefined)	-8.1	16
O=C(Cn1cnc2c(nnn2Cc2ccc(Cl)cc2)c1=O)NCc1ccc2c(c1)OCO2	/	10
COc1ccc(CNC(=O)CN(C)Cc2ccccc2F)cc1OC	/	0
COC(=O)CC1C=CS(=O)(=O)C1 (centres undefined)	-1.1	/

A run of entries taken from the entries so far, for reference:
SMILES	MgrA DNA FP	S aureus helic
C#CCn1c(=NC(=O)CSCC(=O)N2CCCC2)sc2ccccc21	/	1
Cc1ccccc1Cn1nc(-c2ccco2)ccc1=O	/	11
CC(C)CC(NC(=O)c1ccco1)C(=O)O (centres undefined)	-8.1	16
O=C(Cn1cnc2c(nnn2Cc2ccc(Cl)cc2)c1=O)NCc1ccc2c(c1)OCO2	/	10
COc1ccc(CNC(=O)CN(C)Cc2ccccc2F)cc1OC	/	0
COC(=O)CC1C=CS(=O)(=O)C1 (centres undefined)	-1.1	/

Going on with the list:
SMILES	MgrA DNA FP	S aureus helic
COc1cccc(NC2=NC3(CCCC3)N=C(N)N2)c1	3.6	11
COc1ccc(C(=O)COC(=O)CCn2c(C)csc2=O)c(OC)c1	/	-9
CCN(CC)S(=O)(=O)c1ccc(NC(=O)CSc2nncn2-c2ccccc2)cc1	/	4
O=C(CSC1CC(=O)N(c2ccccc2)C1=O)Nc1ccc(F)cc1 (centres undefined)	-0.3	-1
CC(=O)Nc1ccc2c(c1)sc(=NC(=O)c1ccc(Br)s1)n2C	/	6
CCC(C)Nc1ncnc2c1oc1ccccc12 (centres undefined)	-1.4	-10
Cc1ccc(-c2nc3cnccn3c2NC2CCCCC2)o1	7.5	4
COc1ccc(NC(=O)C2=Cc3cccc(OC)c3OC2)cc1	/	17
O=C(Cc1nn[nH]n1)Nc1cc(Cl)cc(Cl)c1	-4.2	/
CN(C(=O)Nc1noc2c1COc1ccccc1-2)C1CCCCC1	/	-19
C=CCNC(=O)c1ccc(-c2ccccc2)cc1	/	3
COC(=O)c1ccccc1NC(=O)c1cc2nc(-c3ccccc3)cc(C(F)(F)F)n2n1	-0.9	/
COCCN1C(=O)C(=O)/C(=C(/O)c2ccccc2)C1c1ccccc1 (centres undefined)	0.2	-1
C=CCSc1nnc(-c2c[nH]c3ccccc23)n1C	/	5
O=C(N/C(=C\c1ccco1)C(=O)N1CCCC1)c1ccccc1	3.0	3
COc1ccc(CCCc2nnc(SCC(=O)NN)o2)cc1	0.3	7
CC(=O)Nc1ccc(N2CCOCC2)c(Cl)c1	-0.2	6
CCc1cccc(Nc2ncnc3c2nc2n3CCCCC2)c1	-0.3	-11
COCc1cc(C)nc(SCC(=O)N2CCCCC2)c1C#N	-0.6	9
C=CCn1c(SCc2cn3ccccc3n2)nnc1-c1cccc(S(=O)(=O)N(CC)CC)c1	/	-1
CCCOc1ccc(C(=O)CCN(C)C)cc1	/	-12
COC(=O)c1ccc(S(=O)(=O)N2CCC(O)CC2)n1C	/	-19
CC(C)(C)C(=O)NCc1cn2ccsc2n1	1.0	15
CC(=O)Nc1ccc2c(c1)C1C=CCC1C(C(=O)O)N2 (centres undefined)	/	-92
Cc1cc(C)c(C(=O)CSC2=NC(N)=C(C#N)C3(CCCCC3)C2C(N)=O)cc1C (centres undefined)	2.2	25
Carrying on.
SMILES	MgrA DNA FP	S aureus helic
CSc1nnc([C@H](C)NC(=O)OC(C)(C)C)o1	0.9	-7
CCOc1ccc(C2C(C(=O)OC)=CN(CC(C)C)C=C2C(=O)OC)cc1OC	3.5	6
COc1cccc(C2CC(=O)NC(SCC(=O)Nc3ccc(Br)cc3)=C2C#N)c1 (centres undefined)	3.4	/
O=C(/C=C/C=C/c1ccccc1)c1ccncc1	1.9	0
Cc1nn(S(=O)(=O)c2ccc(Cl)cc2)cc1-c1nsc(Nc2ccccc2)n1	/	21
Cc1c(Cl)cccc1NC(=S)N1CCCN(c2nc3ccc(Cl)cc3s2)CC1	-0.5	/
COc1ccc2[nH]c3nc(SCC(=O)NC(C)(C)C)nnc3c2c1	1.1	19
COc1cc(-c2cc(C(F)(F)F)n3ncc(C(=O)Nc4cccnc4Cl)c3n2)cc(OC)c1OC	-3.3	/
C/C(=N\NC(=O)CNc1ccccc1)c1ccccc1	0.8	-2
O=C(CN1CSCC1=O)Nc1cc(C(F)(F)F)ccc1NC1CCCCC1	/	2
COc1cc(CC(=O)NC2CCC(C)CC2)cc(OC)c1OC (centres undefined)	/	7
Cc1c(N)cc(N)cc1C(=O)O	-2.5	8
CCOC(=O)c1c(NC(=O)CCN2C(=O)c3cccc([N+](=O)[O-])c3C2=O)sc(C(C)=O)c1C	0.4	/
O=C(O)CCS(=O)(=O)c1ccc2ccccc2c1	-1.1	-2
O=C1CC(Sc2ccccc2C(=O)O)C(=O)N1 (centres undefined)	/	25
CC(C)(C)C(=O)/C=C1\NC(=O)CS1	0.6	-12
O=C(c1ccc(-c2ccccc2Cl)o1)N1CCOCC1	/	15
CC(=O)N1c2ccc(S(=O)(=O)N3CCCCC3)cc2CC1C (centres undefined)	0.0	11
O=C1c2ccccc2C(O)(Cc2ccccc2)N1C1CCCCC1 (centres undefined)	-0.8	18
COc1ccc(-n2c(SCC(=O)NC(C)(C)C)nc3ccccc32)cc1	0.0	-5
COc1ccccc1C(=O)Nc1ccc(-c2nc3c(ccc4ccccc43)o2)cc1	-0.3	/
CCC1CCCCN1C(=O)CSc1nnc(-c2cccnc2)n1-c1ccc(OC)cc1 (centres undefined)	2.4	-2
CC(=O)NS(=O)(=O)c1ccc(NC(=O)C(C)NS(=O)(=O)/C=C/c2ccccc2)cc1 (centres undefined)	/	9
CC(Sc1nc2sc3c(c2c(=O)n1Cc1ccco1)CCC3)c1nc2ccccc2c(=O)[nH]1 (centres undefined)	/	-5
Cc1ccc2c(COC(=O)Cn3c(C)csc3=O)cc(=O)oc2c1C	/	8
Going on with the list.
SMILES	MgrA DNA FP	S aureus helic
Nc1nnc(SCC(=O)N2CCCCCC2)s1	/	-6
N#CC1=C(N)N2CCCSC2=C(C#N)C1c1ccccc1 (centres undefined)	/	3
COc1cc(/C=N/NC(N)=O)cc2sc(=O)oc12	12	14
CCOC(=O)C1(C)NC(c2ccc(F)cc2)C2C(=O)N(CC)C(=O)C21 (centres undefined)	-1.6	5
CCN(CC)N=Nc1ccc(S(=O)(=O)N2CCSC2C(=O)O)cc1 (centres undefined)	0.9	9
COc1cc(C)c(C(=O)CCC(=O)O)cc1C	-3.6	2
Cn1c(C(=O)N2CCCCC2)cc2c(=O)[nH]c3ccccc3c21	/	12
CC(COc1ccccc1)N(CCCl)Cc1ccccc1 (centres undefined)	7.0&-4.3	/
Cc1ccnn1CCC(=O)O	/	17
CCCCc1nc2sc3c(=O)n(N)cnc3c2c2c1CCC2	6.0	10

In the list so far, these have a tert-butyl group:
SMILES	MgrA DNA FP	S aureus helic
COc1ccccc1NC(=O)CC(C)(C)C	1.8	1
CC(C)(C)C(=O)NCc1cn2ccsc2n1	1.0	15
CSc1nnc([C@H](C)NC(=O)OC(C)(C)C)o1	0.9	-7
COc1ccc2[nH]c3nc(SCC(=O)NC(C)(C)C)nnc3c2c1	1.1	19
CC(C)(C)C(=O)/C=C1\NC(=O)CS1	0.6	-12
COc1ccc(-n2c(SCC(=O)NC(C)(C)C)nc3ccccc32)cc1	0.0	-5

Screens (PubChem BioAssay)

The list is partial, so the mix of outcomes need not match the whole.
